# NOMO-1 viab – STK33 inhibitor candidate reducing NOMO-1 cell viability. NOMO-1 AML viability, CellTiter-Glo luminescence, 72 h. 37,000 compounds, 7.5% hits. inhibition, % (no concentration beside the values);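 active = most replicates above 80%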;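 note: wells of about 30 µL received 25 nL stock; 0% = median of vehicle wells and 100% = reference inhibitor level; the first replicate is given; inactives centre near 10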
# * hit, by the source's call.
SMILES,NOMO-1 viab
C[C@@H]1CN([C@H](C)CO)C(=O)Cc2cc(NC(=O)Cc3cn(C)c4ccccc34)ccc2O[C@H]1CN(C)C(=O)Nc1ccc(C(F)(F)F)cc1,25
CCOC(=O)CSc1nc(-c2ccccc2)c2cc(Cl)ccc2n1,12
C[C@H]1CN([C@@H](C)CO)C(=O)c2cccc(NS(C)(=O)=O)c2O[C@H]1CN(C)S(=O)(=O)c1cccs1,1
Cc1cc(Cl)c(S(=O)(=O)N2CCSCC2)cc1OCC(N)=O,-1
C[C@H](CO)N1C[C@H](C)[C@@H](CN(C)C(=O)Nc2ccccc2)Oc2ccc(N(C)C)cc2C1=O,14
CS(=O)(=O)N(CC(=O)Nc1ccc(Cl)c(C(F)(F)F)c1)c1cccc([N+](=O)[O-])c1,14
CC(C)NC(=O)Nc1ccc2c(c1)CC(=O)N([C@@H](C)CO)C[C@H](C)[C@H](CN(C)C(=O)Nc1ccc(C(F)(F)F)cc1)O2,21
Cc1noc(C)c1S(=O)(=O)Nc1ccc2c(c1)CC(=O)N([C@H](C)CO)C[C@@H](C)[C@@H](CN(C)S(=O)(=O)c1ccc(Cl)cc1)O2,29
C[C@@H]1CCCCO[C@H](CN(C)Cc2ccc(C(=O)Nc3ccccc3N)cc2)[C@@H](C)CN([C@H](C)CO)C(=O)c2cc(NS(C)(=O)=O)ccc2O1,66
C[C@H](CO)N1C[C@H](C)[C@@H](CN(C)C(=O)NC2CCCCC2)Oc2ccc(NC(=O)C3CCCCC3)cc2C1=O,9
O=C(Nc1ccccc1)c1ccc(NCc2cccnc2)c([N+](=O)[O-])c1,19
O=C(NCCN1CCOCC1)c1cc2cc(Br)ccc2oc1=O,5
COc1ccc(NC(=O)N(C)C[C@H]2Oc3ccc(NC(=O)CCC(F)(F)F)cc3CC(=O)N([C@@H](C)CO)C[C@@H]2C)cc1,-14
COC(=O)c1cc(-c2ccccc2)sc1NC(=S)Nc1cccc(NC(C)=O)c1,17
COc1ccc(NC(=O)Nc2ccc3c(c2)C(=O)N([C@@H](C)CO)C[C@H](C)[C@H](CN(C)C(=O)Nc2ccc4c(c2)OCO4)O3)cc1,9
Cc1ccc(S(=O)(=O)NC(=O)N2CCCN(C(=O)OC(C)(C)C)CC2)cc1,-31
COc1cc(OC)c(NC(=O)CSc2nnc(-c3ccncc3)n2-c2ccccc2)cc1Cl,37
COC(=O)c1c(NC(=O)COc2cccc(Cl)c2)sc2c1CCC2,-12
C[C@@H]1CN([C@@H](C)CO)C(=O)Cc2cc(NS(=O)(=O)c3cn(C)cn3)ccc2O[C@@H]1CN(C)C(=O)Nc1ccc(C(F)(F)F)cc1,12
C[C@H](CO)N1C[C@H](C)[C@@H](CN(C)S(=O)(=O)c2ccccc2)Oc2c(NC(=O)c3ccc(-c4nccs4)cc3)cccc2C1=O,35
COC(=O)COc1cccc(NC(=O)c2ccc(Br)cc2)c1,119*
COc1ccc(S(=O)(=O)N(C)CC(=O)NC2CCCCC2)cc1Cl,31
Cc1cc(Cl)c(S(N)(=O)=O)cc1OCC(=O)NC1CCCCC1,7
COc1ccc(NC(=O)N(C)C[C@@H]2Oc3ccc(NS(=O)(=O)c4ccc(Cl)cc4)cc3CC(=O)N([C@@H](C)CO)C[C@@H]2C)cc1,6
COc1ccc(NC(=O)N(C)C[C@@H]2Oc3ccc(NC(=O)Cc4ccccc4)cc3C(=O)N([C@H](C)CO)C[C@H]2C)cc1,-5
Cc1noc(C)c1NC(=O)Nc1ccc2c(c1)C(=O)N([C@H](C)CO)C[C@H](C)[C@H](CN(C)C(=O)Nc1ccccc1)O2,12
C[C@H](CO)N1C[C@H](C)[C@H](CN(C)C(=O)Nc2ccc3c(c2)OCO3)Oc2ccc(NS(=O)(=O)c3ccc(F)cc3)cc2CC1=O,-7
Cc1cccc(NC(=O)CN(c2ccc(Br)c(C)c2)S(C)(=O)=O)c1,26
C[C@@H]1CN([C@@H](C)CO)C(=O)c2cc(NS(=O)(=O)c3ccccc3)ccc2O[C@@H]1CN(C)S(=O)(=O)c1cccs1,-25
COc1ccc(-n2c(SCC(=O)Nc3ccc(C)c(C)c3)nnc2-c2ccccc2)cc1,-5
C[C@@H]1CN([C@@H](C)CO)C(=O)c2cccc(NS(=O)(=O)c3cccs3)c2O[C@H]1CN(C)C(=O)Nc1ccc(F)cc1,26
CC(C)NC(=O)N(C)C[C@H]1Oc2c(NC(=O)Nc3ccc(F)cc3)cccc2C(=O)N([C@@H](C)CO)C[C@H]1C,12
CCOC(=S)SCc1c(C)c(C)c(C)c(C)c1C,15
Cc1nnc(SCC(=O)Nc2cccc(F)c2)s1,40
Cc1ccc(Cl)cc1NC(=O)CC(C(=O)O)N1CCNCC1 (stereo unspecified),-7
O=C(CSc1nc(-c2ccc(Cl)cc2)cc(C(F)(F)F)n1)c1cccc([N+](=O)[O-])c1,56

# Structural class, those above with bromine.
SMILES,NOMO-1 viab
O=C(NCCN1CCOCC1)c1cc2cc(Br)ccc2oc1=O,5
COC(=O)COc1cccc(NC(=O)c2ccc(Br)cc2)c1,119*
Cc1cccc(NC(=O)CN(c2ccc(Br)c(C)c2)S(C)(=O)=O)c1,26

# Later entries:
SMILES,NOMO-1 viab
C[C@H](CO)N1C[C@H](C)[C@@H](CN(C)C)Oc2ccc(NS(=O)(=O)c3cn(C)cn3)cc2C1=O,1
COc1ccc(NC(=O)Nc2cccc3c2O[C@@H](CN(C)C(=O)Nc2ccc(OC)cc2)[C@H](C)CN([C@@H](C)CO)C3=O)cc1,4
C[C@H]1CN([C@@H](C)CO)C(=O)c2cccc(NC(=O)Nc3ccc4c(c3)OCO4)c2O[C@H]1CN(C)S(=O)(=O)c1cccs1,-5
COc1cc(OC)cc(C(=O)N2CCN=C2c2ccccc2)c1,29
COc1ccccc1NC(=O)CNC(=O)c1ccccc1Cl,-3
CO[C@H]1C(=O)c2c(O)c(CC=C(C)C)c(O)c(CC=C(C)C)c2O[C@@H]1c1ccc(O)cc1,34
Cc1ccc(S(=O)(=O)Nc2ccc3c(c2)CC(=O)N([C@@H](C)CO)C[C@H](C)[C@@H](CN(C)S(=O)(=O)c2ccc(Cl)cc2)O3)cc1,16
O=C(CNS(=O)(=O)c1cc(Cl)ccc1Cl)Nc1ccc2c(c1)OCCO2,5
Cc1nc(-c2ccccc2)sc1C(=O)C1C(=O)C(=O)N(CCN(C)C)C1c1ccccc1 (stereo unspecified),3
O=C(c1ccccc1)N1CCN(c2ccc([N+](=O)[O-])c(NCc3cccnc3)c2)CC1,13
C[C@H]1CN([C@@H](C)CO)C(=O)c2cccc(NC(=O)C3CC3)c2O[C@@H]1CN(C)C,-4
C[C@@H]1CN([C@@H](C)CO)C(=O)c2cc(NC(=O)Nc3ccc(C(F)(F)F)cc3)ccc2O[C@H]1CN(C)Cc1ccccc1,96*

# Reformatted with each value named: part of the list above
> Cc1nc(-c2ccccc2)sc1C(=O)C1C(=O)C(=O)N(CCN(C)C)C1c1ccccc1 (stereo unspecified)
- NOMO-1 viab: 3

> O=C(CNS(=O)(=O)c1cc(Cl)ccc1Cl)Nc1ccc2c(c1)OCCO2
- NOMO-1 viab: 5

> C[C@@H]1CN([C@@H](C)CO)C(=O)c2cc(NC(=O)Nc3ccc(C(F)(F)F)cc3)ccc2O[C@H]1CN(C)Cc1ccccc1
- NOMO-1 viab: 96*

> COc1ccccc1NC(=O)CNC(=O)c1ccccc1Cl
- NOMO-1 viab: -3

# The results go on.
SMILES,NOMO-1 viab
C[C@@H]1CCCCO[C@H](CN(C)S(C)(=O)=O)[C@@H](C)CN([C@H](C)CO)C(=O)c2cc(NS(=O)(=O)c3cn(C)cn3)ccc2O1,8
O=C(Nc1ccc(Cl)cc1C(=O)NCCO)c1ccc(Cl)cc1Cl,16
CS(=O)(=O)N(CC(=O)NC1CCCCC1)c1ccc2c3c(cccc13)CC2,-2
O=C(CSCc1nc2ccccc2[nH]1)Nc1cccc(C(F)(F)F)c1,6
N#CCCN(CCC#N)C(=O)c1cccc([N+](=O)[O-])c1,-18
COc1ccc(S(=O)(=O)Nc2ccc3c(c2)CC(=O)N([C@H](C)CO)C[C@@H](C)[C@@H](CN(C)Cc2ccc(Cl)c(Cl)c2)O3)cc1,114*
O=C(NCc1ccco1)c1ccc(NC(=O)c2cccs2)cc1,-6
CS(=O)(=O)N(CC(=O)Nc1cc(C(F)(F)F)ccc1Cl)c1ccc(I)cc1,30
Cc1ccc(S(=O)(=O)N(C)C[C@H]2Oc3ccc(NS(=O)(=O)c4cn(C)cn4)cc3CC(=O)N([C@H](C)CO)C[C@H]2C)cc1,-2
C[C@@H]1CN([C@H](C)CO)C(=O)c2cccc(NC(=O)NC3CCCCC3)c2O[C@H]1CN(C)C(=O)Nc1cccc2ccccc12,4
Nc1ccc(C(=O)N2CCOCC2)cc1,8
C[C@@H]1CCCCO[C@@H](CN(C)C(=O)Nc2ccc(F)cc2)[C@@H](C)CN([C@H](C)CO)C(=O)c2cc(NC(=O)Nc3ccccc3)ccc2O1,37
C[C@@H]1CN([C@H](C)CO)C(=O)c2cccc(NC(=O)Nc3ccc(F)cc3)c2O[C@@H]1CN(C)C(=O)Nc1cccc2ccccc12,56
C[C@@H]1CN([C@H](C)CO)C(=O)Cc2cc(NC(=O)Cn3cnnn3)ccc2O[C@@H]1CN(C)S(=O)(=O)c1ccc(F)cc1,-15
Cc1cc(C)c2oc(-c3ccc(NC(=O)COc4ccc(Br)cc4)cc3O)nc2c1,13
COC1CC(OC(O)C(O)C(O)C(O)C(O)CO)c2c(cc3cc(C)oc(=O)c3c2O)OC1=O (stereo unspecified),14
C[C@@H]1CN([C@@H](C)CO)C(=O)Cc2cc(NC(=O)NC3CCCCC3)ccc2O[C@@H]1CN(C)CC1CCCCC1,28
O=C(CSc1nnc2n(-c3ccccc3)c3ccccc3n12)Nc1ccc(Cl)cc1,-12
Cc1ccc(S(=O)(=O)Nc2cccc3c2O[C@H](CN(C)C)[C@@H](C)CN([C@H](C)CO)C3=O)cc1,1
CC(C)(C)c1csc(=Nc2ccc(F)cc2F)o1,15
COc1ccc([N+](=O)[O-])cc1NC(=O)C(CC(C)C)N1C(=O)c2ccccc2C1=O (stereo unspecified),28
C[C@H](CO)N1C[C@H](C)[C@@H](CN(C)Cc2ccncc2)Oc2c(NC(=O)C3CCCCC3)cccc2C1=O,30
COc1ccc(Cl)cc1NC(=O)C(C)NS(=O)(=O)c1ccc(C)cc1 (stereo unspecified),3
Cc1c(CCC(=O)O)c(=O)oc2cc(OCc3cccc(F)c3)ccc12,23
COc1ccc(NC(=O)Nc2ccc3c(c2)C(=O)N([C@H](C)CO)C[C@H](C)[C@@H](CN(C)S(=O)(=O)c2ccc(F)cc2)OCCCC[C@@H](C)O3)cc1,0
CC12CC3CC(C)(C1)CC(C(=O)NN)(C3)C2,3
Cc1noc(C)c1NC(=O)Nc1ccc2c(c1)C(=O)N([C@@H](C)CO)C[C@H](C)[C@@H](CN(C)S(=O)(=O)c1ccc(Cl)cc1)O2,-29
CCCSc1nc(NCCO)c2c3c(sc2n1)COC(C)(CC)C3 (stereo unspecified),17
O=C(Oc1ccc(C2SCCS2)cc1)c1cccc(C(F)(F)F)c1,3
C=C(C)C(=O)Nc1ccc(O)c(-c2nc3ccccc3[nH]2)c1,7
Cc1cc(C)c(NC(=O)CN(C2CCCCC2)S(=O)(=O)c2ccc(Br)cc2)c(C)c1,41
COC(=O)C1=CO[C@@H](O[C@@H]2O[C@H](CO)[C@@H](O)[C@H](O)[C@H]2O)/C(=C\CO)[C@@H]1CC(=O)OCCc1ccc(O)cc1,22
C[C@H](CO)N1C[C@H](C)[C@H](CN(C)S(=O)(=O)c2ccccc2)Oc2ccc(NC(=O)CCN3CCOCC3)cc2C1=O,-17
C[C@H](CO)N1C[C@H](C)[C@H](CN(C)S(=O)(=O)c2ccccc2)Oc2ccc(NC(=O)C3CC3)cc2CC1=O,-25
C[C@@H]1CCCCO[C@@H](CN(C)S(=O)(=O)c2cccs2)[C@@H](C)CN([C@H](C)CO)C(=O)c2cc(NC(=O)c3ccccc3)ccc2O1,40
Clc1ccc(-c2csc3ncnc(NCCN4CCOCC4)c23)cc1,58
COc1ccc(CN(C)C[C@@H]2Oc3c(NC(=O)Nc4ccccc4)cccc3C(=O)N([C@@H](C)CO)C[C@H]2C)cc1,100*
C[C@@H]1CN([C@@H](C)CO)C(=O)c2cc(NC(=O)Nc3ccc4c(c3)OCO4)ccc2O[C@H]1CN(C)C(=O)Nc1ccc2c(c1)OCO2,4
O=C(O)c1ccc(NS(=O)(=O)c2cccc(C(=O)Nc3ccccc3)c2)cc1,6
C[C@H]1CN([C@@H](C)CO)C(=O)c2cc(NC(=O)CCC(F)(F)F)ccc2O[C@@H]1CN(C)S(=O)(=O)c1cn(C)cn1,18
Cc1ccc(S(=O)(=O)N(C)C[C@H]2Oc3ccc(NC(=O)Nc4ccc5c(c4)OCO5)cc3CC(=O)N([C@@H](C)CO)C[C@H]2C)cc1,48
COc1ccc(S(=O)(=O)Nc2ccc3c(c2)C(=O)N([C@H](C)CO)C[C@H](C)[C@H](CN(C)Cc2ccncc2)O3)cc1,8
COc1ccc(CN(C)C[C@@H]2Oc3c(NS(=O)(=O)c4ccc(OC)cc4)cccc3C(=O)N([C@H](C)CO)C[C@@H]2C)cc1,9
CNC[C@H]1Oc2c(NC(=O)C3CC3)cccc2C(=O)N([C@H](C)CO)C[C@@H]1C,-2
Cc1cc2nsnc2c(S(=O)(=O)NCC(=O)O)c1C,5
COc1ccc(NC(=S)NCc2ccccn2)cc1OC,20
COc1ccc(S(=O)(=O)N(C)C[C@@H]2Oc3ccc(NS(=O)(=O)c4ccccc4)cc3C(=O)N([C@@H](C)CO)C[C@H]2C)cc1,26

# Assay outcomes as filed in PubChem.

# An excerpt; rates above refer to the full screens.
